# Yeast UUG start – yeast start codon fidelity modulation. AID 602363. S. cerevisiae UUG-firefly luciferase reporter, luminescence/redox ratio. 0.13% of 350,000 active. activity score, % at 18.7 µM;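 active = replicate mean at a twofold rise or more, about +100% in these data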;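 also: firefly luciferase made from a UUG start codon reports start codon fidelity; reporter light over untreated wells divided by growth signal over untreated wells; some hits fall short of that in this replicate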
# eIF4H inh – inhibitors of RNA binding by human eIF4H. Q15056. inhibition, % at 35 µM. 0.94% of 290,000 active. eIF4H fluorescence polarization binding assay. AID 2012;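 active = 50% or more with normal probe brightness, or confirmed in later tests; inconclusive = above 50% with abnormal brightness, or retests that disagree; inactive = below 50% or failed in later tests; about a fifth of its hits are not listed in these tables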;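 also: calls also rest on retests at 20 µM and on dose response follow-up; 0% = protein and probe with vehicle and 100% = probe without protein; strong numbers were not always called active; many hits fall short of the cut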
# PABP polyA inh – blocks human PABP binding to poly(A) RNA; P11940; fluorescence polarization; inhibition, % at 35 µM; 1% of 290,000 active; AID 2014;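 active = 50% or more with normal probe brightness, or confirmed in later tests; inconclusive = above 50% with abnormal brightness, or retests that disagree; inactive = below 50% or failed in later tests; about a fifth of its hits are not listed in these tables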;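 also: calls also rest on retests at 20 µM and on dose response follow-up; controls were probe without protein and protein plus probe with vehicle; some compounds called inactive have numbers as strong as hits; many hits fall short of the cut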
# HIV Env fusion – inhibitors of HIV Env-mediated cell fusion; HeLa-JRFL Env/CEM21 cell fusion, luciferase; inhibition, % at 12.3 µM; 1.1% of 360,000 active; AID 651610;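 active = mean replicate inhibition score of at least 50 and every replicate individually at or above 50; inconclusive = only one of the two criteria met; inactive = mean below 50 and not all replicates reaching 50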;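 also: 0% = plate neutral controls and 100% = maraviroc near 300 nM; one replicate is shown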
# MT1-MMP act inh – blocks activation of human MT1-MMP; P50281; HT1080 RFP-PRO-GFP cells, GFP/RFP ratio fluorescence, overnight; percent of plate control window, DMSO zero; GFP/RFP ratio change, % at 20 µM; 0.061% of 360,000 active; AID 651647;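 active = GFP/RFP ratio change of at least 30% with cell ATP level not reduced by more than half and red fluorescence within 50% of control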; also: strong numbers were not always called active
#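 Material: RFP-PRO-GFP reporter HT1080 cells. Dosing: single-point 20 µM compound, 1% DMSO. Controls: DMSO and RFP-L50D-GFP cell wells. Timing: cells overnight before dosing, compound overnight, 37 °C, 5% CO2. Measure: GFP/RFP fluorescence ratio.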
# CSC inhib – cancer stem cell inhibition | cancer stem cell-like cells viability, luminescence | inhibition, % at 7.5 µM | 1.1% of 300,000 active | AID 2717;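 active = mean at 75% or more and at least half the replicates too; inconclusive = mean and replicates disagree; tested in HMLE shEcad cells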;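 also: 0% = median of negative and 100% = median of positive control wells; the first replicate is given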
# Rce1 inh – yeast Ras-converting enzyme inhibition; Q03530; calls only; 0.27% of 290,000 active; yeast membranes, quenched prenylated peptide cleavage fluorescence; AID 2563;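 active = fall in fluorescence gain of 50% or more versus controls, with final raw signal at or below 3038400; inconclusive = same 50% fall but final raw signal above 3038400; inactive = fall in fluorescence gain under 50%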;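 also: plate controls were neutral control wells for no effect and wells lacking membranes for full effect; tested at 10 µM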
# Target sequence (Q03530 whole entry, looked up): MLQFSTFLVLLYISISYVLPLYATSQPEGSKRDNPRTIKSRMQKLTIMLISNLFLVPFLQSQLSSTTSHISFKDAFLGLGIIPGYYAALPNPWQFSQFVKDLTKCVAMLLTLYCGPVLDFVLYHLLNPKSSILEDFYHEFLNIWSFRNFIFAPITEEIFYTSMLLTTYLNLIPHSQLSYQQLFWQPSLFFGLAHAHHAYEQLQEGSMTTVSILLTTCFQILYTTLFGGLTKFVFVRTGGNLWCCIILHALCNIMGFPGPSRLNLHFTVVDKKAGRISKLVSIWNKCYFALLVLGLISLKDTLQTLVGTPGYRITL
# MT1-MMP act inh RFP – recorded beside MT1-MMP act inh, whose call it bears; RFP signal change, %; measured here: RFP expression control read;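 0 = vehicle wells; hits needed this value within 50% of zero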
# * hit, by the source's call; i = inactive; ? = inconclusive; · = not tested or not shown; & = joins results of further samples.
SMILES,Yeast UUG start,eIF4H inh,PABP polyA inh,HIV Env fusion,MT1-MMP act inh,MT1-MMP act inh RFP,CSC inhib,Rce1 inh
COc1ccc(CCNC2CC(=O)N(C)C2=O)cc1OC (stereo unspecified),·,1,-6,2,-1,1,0,i
COCCNCCCOc1ccc(C(C)(C)c2ccccc2)cc1,3,12,12,-3,1,3,61,i
COc1cccc(CNC(=O)CNS(=O)(=O)c2ccc(Br)s2)c1,-9,-6,-7,12,1,3,50,i
Cc1cccc(OCCC(=O)Nc2nnc(C)s2)c1,-8,-2,1,-6,4,6,-8,i
CC(C)CNC(=O)NC(=O)COC(=O)C1CSC2(c3ccc(F)cc3)CCC(=O)N12 (stereo unspecified),·,-4,-4,18,-2,-3,-12,i
COc1cccc(C(O)c2nc(-c3cncnc3)cs2)c1 (stereo unspecified),-3,·,·,5,-5,-2,·,·
CC1CCc2nc(N)c(C#N)c(-c3ccncc3)c2C1 (stereo unspecified),-16,0,1,-13,·,·,-3,i
COc1cc(/C=C(\C#N)c2nc3ccccc3s2)cc([N+](=O)[O-])c1O,·,-4,16,18,2,-3,·,·
CCOC(=O)CNC=C(C(=O)OCC)C(=O)OCC,3,-3,-11,·,-1,2,12,i
CSc1nccc(Nc2ccccc2)c1C#N,-21,-5,-5,·,-2,3,-13,i
O=C(COC(=O)/C=C/c1cccc(C(F)(F)F)c1)NC(=O)NC1CCCC1,-6,·,·,15,2,0,·,·
CC1Cc2ccccc2N1c1nc(C2CC2)nc2c1nnn2Cc1ccccc1 (stereo unspecified),-15,-2,3,·,4,-7,8,i
Cc1cccc(OCCCC(=O)Nc2nccs2)c1C,·,-8,0,-16,2,-6,8,i
NCCSc1c(-c2ccc(F)cc2)[nH]c2ccccc12,·,-1,6,-1,-4,-1,16,i
CCCCCn1cnnc1SCC(=O)c1ccc2c(c1)OCO2,-25,·,·,·,-3,0,-4,·
COc1ccc(NC(=O)c2cc3ccccc3o2)cc1,-17,-3,-2,·,4,0,-3,i
Cc1ccc(C(=O)CSc2nc(N)cc(=O)[nH]2)cc1,0,3,-17,-42,-1,-3,16,i
Cc1ccc(CNC(=O)CSc2nnc3c(n2)[nH]c2ccc(F)cc23)cc1,-2,-6,-22,-8,2,0,8,i
COc1cc(C(CCN2CCOCC2)c2c(OC)cc(OC)c3c(C)cc(=O)oc23)cc(OC)c1OC (stereo unspecified),-11,-1,-9,-14,6,3,1,i
COc1ccccc1/C=C(\NC(=O)c1ccc(OC)c(OC)c1)C(=O)Nc1ccc([N+](=O)[O-])cc1,·,5,0,-13,6,-4,3,i
CCc1nc2c(OCCOc3ccc(F)cc3)cccn2c1N(C)C(=O)c1ccc(OC)cc1,-13,·,·,17,-5,-4,·,·
Cc1ccc(O)c(Nc2ncnc3ccc([N+](=O)[O-])cc23)c1,-1,-2,0,39,-9,-9,25,i
O=C(NCC(c1ccco1)N1CCN(c2ccccc2F)CC1)C(=O)NC1CCCCC1 (stereo unspecified),-15,·,·,-15,4,0,11,i
CCN(CC)S(=O)(=O)c1ccc(-c2ccc(S(=O)(=O)N(CC)CC)cc2)cc1,-21,-1,-7,?,-6,-19,·,i
O=C1C2C3C=CC(C3)C2C(=O)N1Cc1ccc(CN2C(=O)C3C4C=CC(C4)C3C2=O)cc1 (stereo unspecified),-13,-1,-3,·,6,-2,-14,i
SMILES,Yeast UUG start,eIF4H inh,PABP polyA inh,HIV Env fusion,MT1-MMP act inh,MT1-MMP act inh RFP,CSC inhib,Rce1 inh
Cc1nc2ccccc2c(=O)n1/N=C/c1ccc(C(C)C)cc1,-5,-3,-10,-9,7,4,-2,i
CC(C)(C)NC(=O)C(c1ccccn1)N(C(=O)C1CSC(=O)C1)c1cccc(F)c1 (stereo unspecified),·,1,0,35,-6,-2,6,i
CCCNC(=O)c1noc2c1CCc1cc(OC)ccc1-2,-28,8,-12,-91,-2,-4,2,i
Cc1nc(SCC(=O)NC2CCS(=O)(=O)C2)c2c3c(sc2n1)CCC3 (stereo unspecified),·,·,·,-20,-3,2,-9,·
Cn1cc2cccc([N+](=O)[O-])c2n1,-1,-4,30,11,1,2,-4,i
CCCC(=O)Nc1nnc(C2CCCO2)s1 (stereo unspecified),·,-11,0,4,1,3,0,i
COc1cnc(-c2ccccn2)[nH]c1=O,·,2,12,-14,1,4,6,i
O=C(NNC(=O)C1CCCN(c2ncccn2)C1)c1ccncc1 (stereo unspecified),·,-6,1,-8,0,3,-7,·
CC(=O)c1ccc(OCc2cc(C(=O)N(C)Cc3ccon3)no2)cc1,-7,-5,3,-18,-3,-1,-5,i
CCCCOC(=O)Cn1c(=O)n(CC(=O)OCCCC)c2ccccc21,4,4,6,·,-2,0,-2,i
CCOC(=O)CSc1nc(-c2ccncc2)ccc1C#N,-7,-8,-9,·,-1,0,-8,i
COC(=O)c1ccc(OCC(=O)c2ccccc2)cc1,-25,-1,-9,-198,-1,-1,12,i
COc1ccc(Nc2nc(NCCCN3CCOCC3)nc(N)c2[N+](=O)[O-])cc1,·,15,12,-66,-9,-4,5,i
Cc1ccc(OCC(=O)N(Cc2ccccc2)C2CCS(=O)(=O)C2)c([N+](=O)[O-])n1 (stereo unspecified),·,3,13,-2,4,3,-4,i
OCCN1CCN(c2cc(C(F)(F)F)nc3c(F)cccc23)CC1,·,-6,3,-19,-2,-3,5,i
CCN(CC)CCN(C(=O)c1ccc2c(c1)CCCC2)c1nc2c(OC)cccc2s1,3,·,·,-13,0,-5,·,·
CCN(CC)CC(C)CNC(=O)C1(O)c2ccccc2NC(=O)N1c1ccc(Cl)c(Cl)c1 (stereo unspecified),-13,6,-11,-8,-2,4,0,i
COc1cccc(C(C)(O)c2nc(-c3ccccc3)cs2)c1 (stereo unspecified),-2,·,·,-5,-6,-19,·,·
CCOC(=O)c1sc(NCc2ccco2)c(-c2nc3ccccc3s2)c1N,-21,-1,18,·,-14,-2,-10,i
CCc1nc(SCC(=O)c2ccccc2)c2ccccc2n1,-30,4,14,19,3,0,13,i
COC(=O)c1ccccc1NC(=O)Nc1ccc(C(=O)N2CCCC2)cc1,-12,-9,5,-22,7,3,-5,i
Cc1cc(-c2cccc([N+](=O)[O-])c2)nc2ccccc12,·,2,11,17,2,3,·,i
CN(C)c1ccc(C(=O)NCc2ccc3c(c2)OCO3)cc1,-5,-2,7,-23,-5,-2,-3,i
Cc1sc2cc(-c3cccc([N+](=O)[O-])c3)c(-c3cccc([N+](=O)[O-])c3)c[n+]2c1C,·,8,4,4,0,6,-4,i
Cn1cccc1Cc1nnc(SCC(=O)Nc2ccc(F)cc2)n1CCc1ccccc1,-21,-18,-2,9,3,0,-2,i
SMILES,Yeast UUG start,eIF4H inh,PABP polyA inh,HIV Env fusion,MT1-MMP act inh,MT1-MMP act inh RFP,CSC inhib,Rce1 inh
COc1ccccc1NC(=O)C1CCN(C(=O)C2CC(=O)N(c3ccc(C)cc3)C2)CC1 (stereo unspecified),-2,2,6,-14,1,1,-2,i
O=C1CN(C(=O)c2ccccn2)c2ccccc2N1,-8,-10,0,·,-2,3,-1,i
CCc1ccc(NC(=O)CCc2nc3cccnc3n2Cc2ccc(OC)cc2)cc1,-9,6,-6,37,0,-5,0,i
COCC(C)n1c(C)cc(C(=O)CN2C(=O)NC3(CCCCC3C)C2=O)c1C (stereo unspecified),-2,-3,2,-23,6,3,16,i
O=C(COC(=O)c1ccc(Cl)nc1)NCCC1=CCCCC1,·,-2,0,-6,1,1,-12,i
CN(CC(=O)NCc1ccccn1)S(=O)(=O)c1cc(Cl)ccc1Cl,-11,·,·,-4,3,2,-17,i
Clc1ccc(SCCn2cncn2)cc1,5,7,13,28,2,1,-11,i
CC1CC(C)CN(C(=O)COC(=O)c2ccc3c(c2)C(=O)N(Cc2ccco2)C3=O)C1 (stereo unspecified),0,·,·,8,0,3,-13,·
CS(=O)(=O)c1ccc(Oc2ccc(-c3nnco3)cc2)c([N+](=O)[O-])c1,-14,-9,4,9,1,0,·,i
Cc1ccc(-c2cccc(C3CC=CC4C3C(=O)N(Cc3ccccc3)C4c3ccc(C(F)(F)F)cc3)c2)cc1 (stereo unspecified),-1,-6,-12,25,-1,-19,15,i
COc1ccc(CCNC(=O)CSc2ccc(-c3cccs3)nn2)cc1OC,-3,-4,-8,6,9,6,5,i
CCOC(=O)C(=O)Nc1ccc(S(=O)(=O)Nc2nccs2)cc1,-2,-5,-1,6,-3,0,-2,i
Cc1ccccc1CN(C)C[C@@H]1OCc2cnnn2CCCC(=O)N([C@@H](C)CO)C[C@H]1C,-10&1,·,·,-2,3,9,·,·
COC/C=C/C1=CC2=CC(=O)C(C)(OC(=O)CCC(=O)OC)C(=O)C2=CO1 (stereo unspecified),·,?,?,·,·,·,6,i
Cc1ccc(OCc2nc(-c3ccccn3)n[nH]2)cc1,·,2,-4,·,4,6,14,i
Cc1cccc(Nc2nnc(SC3CCOC3=O)s2)c1C (stereo unspecified),·,-7,6,-10,-10,-3,-5,i
[O-][n+]1cc(Cl)cc(Cl)c1,-3,·,·,-6,2,3,·,·
CCCN1CCN(C(=S)Nc2ccc(S(N)(=O)=O)cc2)CC1,·,-6,0,-4,2,3,-3,i
O=C(NCC1CCCN1S(=O)(=O)c1cccs1)C(=O)Nc1ccc(F)cc1F (stereo unspecified),7,·,·,-15,-2,-1,-5,i
CC(C)Cn1c(CN2CCCCC2C)nc2c1c(=O)n(C)c(=O)n2C (stereo unspecified),-5,-16,0,-15,0,1,-11,i
CC(c1ccccn1)C(C)(O)C(C)c1ccccn1 (stereo unspecified),-24,·,·,0,-2,3,·,·

# In the list so far, 14 have four or more nitrogen atoms.
SMILES,Yeast UUG start,eIF4H inh,PABP polyA inh,HIV Env fusion,MT1-MMP act inh,MT1-MMP act inh RFP,CSC inhib,Rce1 inh
CC1CCc2nc(N)c(C#N)c(-c3ccncc3)c2C1 (stereo unspecified),-16,0,1,-13,·,·,-3,i
CC1Cc2ccccc2N1c1nc(C2CC2)nc2c1nnn2Cc1ccccc1 (stereo unspecified),-15,-2,3,·,4,-7,8,i
Cc1ccc(CNC(=O)CSc2nnc3c(n2)[nH]c2ccc(F)cc23)cc1,-2,-6,-22,-8,2,0,8,i
Cc1ccc(O)c(Nc2ncnc3ccc([N+](=O)[O-])cc23)c1,-1,-2,0,39,-9,-9,25,i
O=C(NCC(c1ccco1)N1CCN(c2ccccc2F)CC1)C(=O)NC1CCCCC1 (stereo unspecified),-15,·,·,-15,4,0,11,i
O=C(NNC(=O)C1CCCN(c2ncccn2)C1)c1ccncc1 (stereo unspecified),·,-6,1,-8,0,3,-7,·
COc1ccc(Nc2nc(NCCCN3CCOCC3)nc(N)c2[N+](=O)[O-])cc1,·,15,12,-66,-9,-4,5,i
CCN(CC)CC(C)CNC(=O)C1(O)c2ccccc2NC(=O)N1c1ccc(Cl)c(Cl)c1 (stereo unspecified),-13,6,-11,-8,-2,4,0,i
Cn1cccc1Cc1nnc(SCC(=O)Nc2ccc(F)cc2)n1CCc1ccccc1,-21,-18,-2,9,3,0,-2,i
CCc1ccc(NC(=O)CCc2nc3cccnc3n2Cc2ccc(OC)cc2)cc1,-9,6,-6,37,0,-5,0,i
Cc1ccccc1CN(C)C[C@@H]1OCc2cnnn2CCCC(=O)N([C@@H](C)CO)C[C@H]1C,-10&1,·,·,-2,3,9,·,·
Cc1ccc(OCc2nc(-c3ccccn3)n[nH]2)cc1,·,2,-4,·,4,6,14,i
CCCN1CCN(C(=S)Nc2ccc(S(N)(=O)=O)cc2)CC1,·,-6,0,-4,2,3,-3,i
CC(C)Cn1c(CN2CCCCC2C)nc2c1c(=O)n(C)c(=O)n2C (stereo unspecified),-5,-16,0,-15,0,1,-11,i
